UCH37 DUB inh = inhibitors of human UCH37 deubiquitinase, primary screen, biochemical, Ub-AMC cleavage, fluorescence; Ubiquitin carboxyl-terminal hydrolase isozyme L5 (Homo sapiens), Q9Y5K5; purified proteasome/UCH37; inhibition, % (test concentration not listed); actives 0.33% (n = 330,000); AID 588478, 2011;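 active means mean of two replicates above 20%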;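 further: 0% = compound-free wells with enzyme and 100% = wells lacking proteasome; stock transfer was 100 nL into about 20 µL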
Target sequence (Q9Y5K5 whole entry, looked up): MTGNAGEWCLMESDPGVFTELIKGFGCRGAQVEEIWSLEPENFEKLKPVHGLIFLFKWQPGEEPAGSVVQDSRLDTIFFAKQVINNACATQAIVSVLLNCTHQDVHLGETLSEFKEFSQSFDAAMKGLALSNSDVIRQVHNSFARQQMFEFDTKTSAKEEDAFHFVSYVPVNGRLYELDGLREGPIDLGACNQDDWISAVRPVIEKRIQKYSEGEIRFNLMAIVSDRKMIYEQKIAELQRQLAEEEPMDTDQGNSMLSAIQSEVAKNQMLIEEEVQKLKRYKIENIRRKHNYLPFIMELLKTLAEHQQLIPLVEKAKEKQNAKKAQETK
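Test system – human UCH37 enzyme supplied as purified proteasome complex · Incubation – 30 min preincubation with enzyme, 25 min cleavage at room temperature · Detection – AMC fluorescence from Ub-AMC cleavage, excitation 355 nm, emission 460 nm · Benchmarks – no-proteasome wells (full inhibition) and compound-free wells (no inhibition)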
Beta2AR agonist = beta2AR agonists driving receptor internalization, primary screen, cell-based, FAP fluorogen, flow cytometry. Am2.2-beta2AR cells; reference of the scale not given here. Beta-2 adrenergic receptor (Homo sapiens), P07550. actives 0.43% (n = 340,000). response, % (test concentration not listed);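 active means response above a set limit, near 3 SD of response in nonfluorescent compounds, cut at about 42% in these data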;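 further: stock transfer was 100 nL into about 11 µL; a reference agonist was the positive control; negative values mostly stem from fluorescent compounds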
FGF22 binding = binders of human FGF22 protein, primary screen, FGF22 synaptogenesis inhibitor project, biophysical, thermal shift, single point; Fibroblast growth factor 22 (Homo sapiens), Q9HCT0; recombinant FGF22 thermal shift, SYPRO orange fluorescence; percent of sucrose octasulfate shift, DMSO zero; calls only at 9.99 µM; actives 1.5% (n = 340,000); AID 651658, 2012;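 active means melting point raised past a set limit in the mean and every replicate; three in four hits are not shown here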
Target sequence (Q9HCT0 whole entry, looked up): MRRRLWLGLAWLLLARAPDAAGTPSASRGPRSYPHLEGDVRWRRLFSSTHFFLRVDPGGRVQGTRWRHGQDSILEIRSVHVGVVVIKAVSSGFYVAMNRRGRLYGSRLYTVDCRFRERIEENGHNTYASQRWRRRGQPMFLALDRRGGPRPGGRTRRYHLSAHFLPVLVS
rRNA inh HTS = reduced GFP signal of wild-type E. coli, primary screen, bacterial rRNA inhibitor project, GFP/RFP fluorescence, OD600, single point; GFP signal change (wild-type ribosome), % (test concentration not listed); actives 1.6% (n = 350,000); E. coli WT GFP vs humanized-ribosome RFP mutants, 24 h; hits give low values; DMSO median 0, no signal -100;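 active means significant combined selectivity score with lowered wild-type GFP, culture density cut under 30%, mutant RFP and density less affected; inactive means any of these conditions unmet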; further: one replicate is shown; some compounds called inactive have numbers as strong as hits
Ecoli growth = E. coli growth inhibition, primary screen, OD600; Escherichia coli growth, 23 h; hits give low values; OD600 absorbance (test concentration not listed); actives 0.21% (n = 330,000); AID 1053175, 2014;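 active means OD600 absorbance below the run mean of sample wells minus 3.6 SD, in any replicate, cut at about 0.56 in these data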;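 further: stock transfer was 300 nL into about 60 µL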
HNF4A DNA FP = change in binding of human HNF4A to DNA, primary screen, biochemical, fluorescence polarization, FITC-DNA. Hepatocyte nuclear factor 4-alpha (Homo sapiens), P41235. 1 h. activity change, % at 10 µM. actives 0.3% (n = 360,000). AID 1224865, 2016; in the data active means activity change above about 30%, passing the limit was not always enough;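 further: controls were the assay level and a saturating level of protein; the project sought stronger binding though the title names inhibitors; some compounds called inactive have numbers as strong as hits; positive values seem to mean higher polarization but the record does not say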
ALR inh = inhibitors of human ALR sulfhydryl oxidase, primary screen, biochemical, H2O2 detection, HRP-luminol luminescence, single point; FAD-linked sulfhydryl oxidase ALR (Homo sapiens), P55789; purified ALR, DTT oxidation; inhibition, % (concentration not given with the values); actives 3.8% (n = 290,000);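 active means mean and each replicate at 75% or more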;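 further: stock transfer was 7.5 nL into about 7.5 µL; 0% = neutral wells and 100% = wells with inactivated enzyme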
Target sequence (P55789 whole entry, looked up): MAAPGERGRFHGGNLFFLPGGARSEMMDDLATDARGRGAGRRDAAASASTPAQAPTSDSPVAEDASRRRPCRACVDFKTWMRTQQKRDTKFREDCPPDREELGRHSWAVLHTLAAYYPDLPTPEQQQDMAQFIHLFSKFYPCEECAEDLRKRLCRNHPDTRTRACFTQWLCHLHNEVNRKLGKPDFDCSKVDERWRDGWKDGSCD
rRNA inh HTS OD600 = recorded beside rRNA inh HTS, whose call it bears; OD600 change, %; measured here: OD600 growth;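 optical density of the mix in the first replicate; 0 = DMSO median and -100 = no signal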
rRNA inh HTS RFP = second read-out of rRNA inh HTS, no call of its own (marks repeat the call); RFP signal change, %; measured here: RFP humanized mutant strains;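 first replicate; 0 = DMSO median and -100 = no signal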
The depositor's hits bear a star; i = inactive; x = not tested or not shown; & = joins results of further samples. Not all compounds are listed; rates above refer to the full screens.

| cpd | structure | UCH37 DUB inh | Beta2AR agonist | FGF22 binding | rRNA inh HTS | rRNA inh HTS OD600 |
| --- | --- | --- | --- | --- | --- | --- |
| 1 | COc1ccc(S(=O)(=O)N2CCOCC2)cc1NC(=O)CN1CCN(C)CC1 | 0.0 | -0.1 | i | 10.5 | 14.6 |
| 2 | NS(=O)(=O)c1cccc(NC(=O)c2cccc(-c3ccc(O)cc3)c2)c1 | -2.0 | -2.2 | i | -25.9* | -13.2* |
| 3 | NC(=O)C1CCN(C(=O)c2cn(-c3ccccc3)nc2-c2cccnc2)CC1 | 1.8 | -8.3 | i | -3.7 | 4.6 |
| 4 | O=C(O)CC(C(=O)NC1CCCCC1)C1CCCO1 (configuration not stated) | 3.2 | -3.9 | x | x | x |
| 5 | O=C(CN1C(=O)NC2(CCc3ccccc32)C1=O)NCc1ccc(F)cc1 (configuration not stated) | 1.0 | -0.6 | i | 5.0 | 11.0 |
| 6 | Cc1nnsc1C(=O)NC1CCCc2c1cnn2-c1ccccc1F (configuration not stated) | 1.0 | 8.3 | i | 1.0 | 3.3 |
| 7 | COc1cc(-c2[nH]ncc2CN2CCc3sccc3C2)cc(OC)c1OC | 2.3 | 3.4 | i | 4.7 | -4.3 |
| 8 | O=C(CCS(=O)(=O)c1ccccc1)NC1CCCCC1 | 2.5 | 4.8 | i | 7.2 | 7.2 |
| 9 | CCN(CC)c1ccc(/C=N/N2CCN(Cc3ccccc3)CC2)c(O)c1 | x | 4.4 | x | x | x |
| 10 | CCc1cccc(NC(=O)CNC(=O)N2CC(=O)Nc3ccccc32)c1 | 0.7 | 17.5 | i | 4.6 | -3.0 |

| cpd | rRNA inh HTS RFP | Ecoli growth | HNF4A DNA FP | ALR inh |
| --- | --- | --- | --- | --- |
| 1 | 1.7 | 0.642 | -2.5 | 0.5 |
| 2 | 9.0* | 0.663 | 0.5 | 12.4 |
| 3 | -2.8 | 0.603 | 5.6 | 0.0 |
| 4 | x | 0.662 | 0.1 | -21.4 |
| 5 | 3.0 | 0.64 | -0.1 | x |
| 6 | 0.7 | 0.626 | 2.8 | -3.8 |
| 7 | -5.5 | 0.672 | 2.1 | -15.1 |
| 8 | -1.8 | 0.669 | -0.8 | 83.6* |
| 9 | x | x | -0.6 | 53.0 |
| 10 | -2.6 | 0.687 | 5.4 | -29.8 |

Compound profiles (already shown).
`CCc1cccc(NC(=O)CNC(=O)N2CC(=O)Nc3ccccc32)c1` is entered as UCH37 DUB inh: 0.7; Beta2AR agonist: 17.5; FGF22 binding: i; rRNA inh HTS: 4.6; rRNA inh HTS OD600: -3.0; rRNA inh HTS RFP: -2.6; Ecoli growth: 0.687; HNF4A DNA FP: 5.4; ALR inh: -29.8
`Cc1nnsc1C(=O)NC1CCCc2c1cnn2-c1ccccc1F` (configuration not stated) is entered as UCH37 DUB inh: 1.0; Beta2AR agonist: 8.3; FGF22 binding: i; rRNA inh HTS: 1.0; rRNA inh HTS OD600: 3.3; rRNA inh HTS RFP: 0.7; Ecoli growth: 0.626; HNF4A DNA FP: 2.8; ALR inh: -3.8
`O=C(CCS(=O)(=O)c1ccccc1)NC1CCCCC1` is entered as UCH37 DUB inh: 2.5; Beta2AR agonist: 4.8; FGF22 binding: i; rRNA inh HTS: 7.2; rRNA inh HTS OD600: 7.2; rRNA inh HTS RFP: -1.8; Ecoli growth: 0.669; HNF4A DNA FP: -0.8; ALR inh: 83.6*

Remaining list, next part:
| cpd | structure | UCH37 DUB inh | Beta2AR agonist | FGF22 binding | rRNA inh HTS | rRNA inh HTS OD600 |
| --- | --- | --- | --- | --- | --- | --- |
| 11 | Cc1ccc(-c2n[nH]c(=O)c3ccccc23)cc1S(=O)(=O)Nc1ccccc1 | 1.2 | 6.2 | x | x | x |
| 12 | CCOc1ccc(NCc2nnc(SCC(=O)Nc3nc(-c4ccccc4)cs3)n2-c2ccccc2)cc1 | -0.9 | 1.9 | x | x | x |
| 13 | C[C@H]1CN([C@@H](C)CO)C(=O)CCCn2nncc2CO[C@@H]1CN(C)C(=O)Cc1ccccc1 | x | x | i | 13.1&0.0 | 4.7&2.3 |
| 14 | Cc1ccc(OCC(=O)Nc2ccc(S(=O)(=O)Nc3ccccn3)cc2)cc1C | -10.7 | -2.9 | i | 3.0 | -2.0 |
| 15 | O=C(NCc1ccccn1)Nc1ccc(Br)cc1Cl | x | -12.7 | i | -0.7 | -16.7 |
| 16 | NS(=O)(=O)c1ccc(NC(=O)CSC2=NC(=O)C(c3ccccc3)C(=O)N2)cc1 (configuration not stated) | 7.6 | 0.0 | x | x | x |
| 17 | O=C(c1ccc2c(c1)OCO2)N1CCN(c2ccccn2)CC1 | 0.0 | 1.4 | x | x | x |
| 18 | COC(=O)CSc1ccc2nnc(CCNS(=O)(=O)c3ccccc3)n2n1 | 0.0 | -0.4 | i | 19.1 | 13.3 |
| 19 | CCN(CC)CCOC(=O)c1cccc(OC)c1 | 0.7 | 4.2 | x | x | x |
| 20 | COc1ccccc1CC(=O)Nc1ccc(S(=O)(=O)N2CCOCC2)cc1 | 2.4 | 6.3 | i | -2.6 | -12.8 |

| cpd | rRNA inh HTS RFP | Ecoli growth | HNF4A DNA FP | ALR inh |
| --- | --- | --- | --- | --- |
| 11 | x | 0.652 | 1.6 | 1.6 |
| 12 | x | 0.715 | -1.8 | -31.1 |
| 13 | -0.1&-1.5 | x | 0.6 | x |
| 14 | -1.7 | 0.725 | 0.3 | 3.5 |
| 15 | -4.0 | x | -1.0 | 2.2 |
| 16 | x | 0.658 | -5.8 | 99.1* |
| 17 | x | 0.712 | 2.5 | -5.0 |
| 18 | 2.9 | 0.637 | 2.0 | -12.1 |
| 19 | x | 0.749 | -2.0 | -6.1 |
| 20 | -0.6 | 0.626 | 0.7 | -6.4 |

In the list so far, these have an NH in an aromatic ring:
| cpd | structure | UCH37 DUB inh | Beta2AR agonist | FGF22 binding | rRNA inh HTS | rRNA inh HTS OD600 |
| --- | --- | --- | --- | --- | --- | --- |
| 7 | COc1cc(-c2[nH]ncc2CN2CCc3sccc3C2)cc(OC)c1OC | 2.3 | 3.4 | i | 4.7 | -4.3 |
| 11 | Cc1ccc(-c2n[nH]c(=O)c3ccccc23)cc1S(=O)(=O)Nc1ccccc1 | 1.2 | 6.2 | x | x | x |

| cpd | rRNA inh HTS RFP | Ecoli growth | HNF4A DNA FP | ALR inh |
| --- | --- | --- | --- | --- |
| 7 | -5.5 | 0.672 | 2.1 | -15.1 |
| 11 | x | 0.652 | 1.6 | 1.6 |

Screens (PubChem)
